A647 autofl = compound fluoresces in the A647 spectral region; Compound fluorescence, A647 channel (570/671 nm), Tris buffer; max dye-equivalent concentration, M; 59,000 tested, under 10 active; active means above 1 µM dye equivalent; inconclusive means 0.1 to 1 µM; inactive means 0.1 µM or less;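 further: values scaled relative to a standard on each plate; highest value over a series up to 38 µM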
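Tris 100 mM pH 8.0; cpd + A647 stds pin-transferred; 15 min RT; CCD imager, ex 570/em 671. Output = A647-equivalent conc. per cpd conc.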
AID923 = qHTS Assay for Allosteric/Competitive Inhibitors of Caspase-1: Spectroscopic Profiling in AFC Spectral Region. compound fluorescence, AFC spectral region (405/520 nm); almost no hit is shown here. Potency, µM (highest dose often 57.5 µM), without a hit: at the top dose fluorescence increase, most hits filed as activators. hit rate 1.1% among 75,000. AID 923, 2007; active means well fitted activation curve with a large enough effect; inconclusive means small, poorly fitted or top-dose-only effect;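 further: potency means the concentration at half of the fitted maximal effect; 0% is about no effect; scaled to a free AFC standard on each plate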
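Titrations up to 57 uM read every 20 sec for 3 min (405/520 nm) with 50 nM caspase 1 and 5 uM Ac-WEHD-AFC, pH 7.5 HEPES buffer. Fluorescence-vs-time intercept gave baseline, scaled against on-plate AFC standard.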
A488 fluor = compound autofluorescence in A488 spectral region; compound autofluorescence, A488 spectral region, dye equivalency; active compounds read high; max dye equivalency, M; hit rate 0.1% among 59,000; active = above 10 nM dye equivalent; inconclusive = 1 to 10 nM; inactive = 1 nM or less; about half of its hits are not listed in these tables;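 further: highest value over a series up to 38 µM; compound alone in buffer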
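Compound autofluorescence was read in 100 mM Tris pH 8.0 after 15 min at room temperature, ex 480 nm/em 540 nm. Intensities were converted to A488 dye-equivalent concentration using an on-plate six-point A488 standard curve.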
Resorufin fluor = resorufin region autofluorescence. hit rate 0.04% among 59,000. Compound fluorescence, resorufin region 547/598 nm, buffer; active compounds read high. AID 588. max dye-equivalent concentration, M; active = above 10 nM dye equivalent; inconclusive = 1 to 10 nM; inactive = 1 nM or less; a few of its hits are not listed in these tables; further: highest value over a series up to 38 µM
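Tris 100 mM pH 8.0; compound added, 15 min RT; CCD imager read, ex 547 nm/em 598 nm; signal normalized to resorufin standard curve (six concentrations per plate) as dye-equivalent concentration.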
TSHR ag = agonists of human thyroid stimulating hormone receptor | P16473 | AID 926 | HEK293-CNG-TSHR cells (CNG channel as cAMP sensor), membrane potential dye, cAMP | Potency, µM (doses to about 57.1 µM), inactives show at the highest dose activation, actives largely listed as activators | hit rate 0.48% among 73,000; active = well fitted activation curve of enough size with the parental cells flat; inconclusive = any curve in the parental cells; inactive = parental cells flat and receptor cells flat or falling; further: potency means the concentration at half of the fitted maximal effect; % of control where 0% means no effect; weak receptor curves with flat parental cells got no call and are not listed
Target sequence (P16473 whole entry, looked up): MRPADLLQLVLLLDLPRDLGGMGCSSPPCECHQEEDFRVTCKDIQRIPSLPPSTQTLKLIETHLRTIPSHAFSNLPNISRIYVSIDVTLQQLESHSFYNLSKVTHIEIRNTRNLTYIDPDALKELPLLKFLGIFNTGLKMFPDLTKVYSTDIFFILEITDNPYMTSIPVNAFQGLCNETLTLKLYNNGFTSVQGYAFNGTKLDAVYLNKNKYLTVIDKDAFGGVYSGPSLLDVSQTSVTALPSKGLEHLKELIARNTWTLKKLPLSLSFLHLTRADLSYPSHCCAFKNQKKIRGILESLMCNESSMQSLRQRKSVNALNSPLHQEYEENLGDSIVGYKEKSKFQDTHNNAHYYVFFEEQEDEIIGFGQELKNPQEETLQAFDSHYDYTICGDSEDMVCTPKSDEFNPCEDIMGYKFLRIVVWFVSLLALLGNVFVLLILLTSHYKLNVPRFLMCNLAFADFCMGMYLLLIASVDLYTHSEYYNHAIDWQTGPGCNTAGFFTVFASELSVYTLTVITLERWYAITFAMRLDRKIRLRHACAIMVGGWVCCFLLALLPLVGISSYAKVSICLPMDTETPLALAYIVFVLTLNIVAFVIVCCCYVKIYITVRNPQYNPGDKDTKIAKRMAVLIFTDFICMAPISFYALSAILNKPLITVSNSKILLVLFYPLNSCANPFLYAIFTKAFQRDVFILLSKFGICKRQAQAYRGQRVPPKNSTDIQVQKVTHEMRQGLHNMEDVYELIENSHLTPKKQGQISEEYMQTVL
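HEK 293 cells stably expressing TSHR and a modified CNG channel, with CNG-only parental cells as counterscreen, were preloaded 60 min at room temperature with membrane potential dye containing 100 uM RO 20-1724. Compound exposure was 30 min, and depolarization was read as fluorescence at 590 nm.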
Numbers without * were called inactive; i = inactive; ? = inconclusive; . = no result given; & = joins results of further samples; [ ] = dose if it differs, or a comment. A portion of the library. The share of hits here may be higher or lower than overall.

SMILES	A647 autofl	AID923	A488 fluor	Resorufin fluor	TSHR ag
CC1=C(C)[N+](=O)C2CCCCC2N1[O-] (centres undefined)	.	-0.8%	.	.	?
CC(=O)NNc1ccccc1	.	-4.8%	.	.	?
CC(=O)OCC1=C(C(=O)O)N2C(=O)[C@@H](N)[C@@H]2SC1	1e-09	0.5%[25.7 µM]	i	i	?
COc1ccc2[nH]c3c(c2c1)CCNC3	2.8e-09	-0.8%	i	i	?
CCN1C[C@]2(C)CC[C@H](O)[C@@]34[C@@H]5CC6[C@@H](OC)C[C@@](O)([C@@H]5[C@@H]6O)[C@H](C[C@@H]23)[C@H]14	7e-09	-0.2%[25.7 µM]	i	i	6.9%[25.6 µM]
CCCCc1nc2ccccc2c(=O)n1-c1ccccc1O	4.28e-08	.	i	i	.
O=C(c1sc2ccccc2c1Cl)N1CCC2(CC1)OCCO2	1.32e-08	-0.8%	i	i	2.5%
CC1CCC(C(=O)NC(C(=O)N2CCC3(CC2)OCCO3)C(C)C)CC1 (centres undefined)	4.44e-08	-0.9%	i	i	3.9%
CC(C)[N+](=O)[O-]	.	-0.9%	.	.	1.1%
O=C(O)C1C(C(=O)O)C2(Cl)C(Cl)=C(Cl)C1(Cl)C2(Cl)Cl (centres undefined)	.	3.5%	.	.	?
CC(C)NC(=O)N1CCCC2(CCN(C(=O)Oc3ccccc3)CC2)C1	1.7e-09	2.9%	i	i	11.4%
C=Cn1ccnc1P(=S)(c1cc(N(CC)CC)ns1)c1nccn1C=C	1e-09	0.7%	i	i	-0.6%
COc1cc(OC)c(OC)cc1CNC(C)C(O)c1ccccc1 (centres undefined)	6.4e-09	-1.9%	i	i	-5.3%
NS(=O)(=O)c1ccc(-c2ccc([As](=O)(O)O)cc2)cc1	1e-09	0.4%[11.5 µM]	i	i	2.7%[11.4 µM]
Cc1ccc(OCC(=O)NCCN2CCN(C(=O)COc3ccc(C)cc3)CC2)cc1	3.53e-08	1.0%	i	i	7.0%
BrC(Br)Br	.	-3.2%	.	.	-2.8%
CS(=N)(=O)CC[C@H](N)P(=O)(O)O (some centres undefined)	1e-09	-1.0%[11.5 µM]	i	i	2.3%[11.4 µM]
COc1cc2c3cc1Oc1c(O)c(OC)cc4c1[C@@H](Cc1ccc(cc1)Oc1cc(ccc1O)C[C@H]3N(C)CC2)N(C)CC4	2.55e-08	1.2%[11.5 µM]	i	i	2.6%[11.4 µM]
c1ccc2c(CCNCc3ccc4c(c3)OCO4)c[nH]c2c1	4.36e-08	1.0%	i	i	17.6%
C[n+]1c(/C=C\c2ccc(O)c3ncccc23)[se]c2ccccc21	1e-09	2.5%[11.5 µM]	i	i	-4.7%[11.4 µM]
CC(C)CN1CC[C@@]2(CCCN(C(=O)c3ccncc3)C2)C1	2e-08	2.0%	i	i	4.9%
O=C(Nc1cccc(F)c1)N1CC2(CCN(C(=O)Oc3ccccc3)CC2)C1	5.9e-09	1.5%	i	i	4.7%
CC(C)NC[C@H](O)c1ccc(N)c(C#N)c1	.	0.6%	.	.	?
c1ccc2c(c1)[I+]c1ccccc1-2	9.6e-09	3.5%&2.0%	i	i	?
CC12CCCCC1N(O)CN2O (centres undefined)	3.62e-08	-0.1%	i	i	4.6%
SMILES	A647 autofl	AID923	A488 fluor	Resorufin fluor	TSHR ag
C[C@@H]1CCC/C=C\[C@H]2C[C@H](O)C[C@@H]2[C@H](O)/C=C\C(=O)O1	1e-09	.	i	i	-8.0%
O=C(c1ccncc1)N1CCC2(CC1)CN(Cc1ccccc1)C2	1.05e-08	2.7%	i	i	1.5%
CC(C)OS(C)(=O)=O	.	2.2%	.	.	5.5%
C#CCN(C)[C@H](C)Cc1ccccc1	.	0.0%	.	.	27.1%
Fc1ccccc1N1CCN(Cc2ccc3c(c2)OCO3)CC1	.	-0.2%	.	.	9.5%[11.4 µM]
[N-]=[N+]=CC(=O)CC[C@H](N)C(=O)O	1.6e-09	0.8%[11.5 µM]	i	i	0.5%[11.4 µM]
CCCCn1c(CN2CCN(c3ccc(F)cc3)CC2)nc2c1c(=O)n(C)c(=O)n2C	.	-3.1%	.	.	?
O=C(c1ccc2c(c1)OCO2)N1CCC2(CC1)OCCO2	.	0.7%	.	.	-4.9%
CCOc1ccc(Cc2c(O)[nH]c(=O)[nH]c2=O)cc1	4.94e-08	.	i	i	.
CCN(CC)CCn1ncc2c(N)ncnc21	3.04e-08	3.9%[11.5 µM]	i	i	21.5%[11.4 µM]
O=C(Oc1ccccc1)N1CCC2(CCN(Cc3ccccc3)CC2)CC1	5.7e-09	1.8%	i	i	19.5%
CCCC[N+](=O)[O-]	.	-0.1%	.	.	2.4%
CCOP(=S)(OCC)SCSC(C)(C)C	.	1.1%	.	.	?
Cc1ccccc1O	.	-1.1%	.	.	3.3%
CCc1nnc(NC(=O)CCc2nc(C3=CCN(C)CC3)no2)s1	1e-09	0.8%	i	i	?
C[C@@]12CC[C@H]3[C@@H](CCC4=CC(=O)CC[C@]43C)[C@H]1CCC2=O	1e-09	.	i	i	?
CC(C)(C)NC[C@@H](O)COc1cccc2[nH]c(C#N)cc12	.	-1.4%	.	.	7.1%
CC(=O)C1C2c3ccccc3OC1(C)N=c1s/c(=C/c3cn(C)nc3C)c(=O)n12 (centres undefined)	1e-09	0.4%	i	i	7.0%
O=C(Oc1ccccc1)N1CCC2(CC1)CCN(C(c1ccccc1)c1ccccc1)CC2	3.8e-09	-0.9%	i	i	-2.6%
Clc1cccc(Cl)c1Cl	.	1.6%	.	.	-2.9%
c1ccc(C[N+]23CN4CN(CN(C4)C2)C3)cc1	4.05e-08	2.6%[11.5 µM]	i	i	-3.6%[11.4 µM]
CCOC(=O)N1CCN(C(C)C(=O)c2c[nH]c3ccccc23)CC1 (centres undefined)	1e-09	0.3%	i	i	-3.8%
CCCC(c1nnnn1Cc1cccs1)N1CCN(c2nc3ccccc3s2)CC1 (centres undefined)	2.12e-08	3.5%	i	i	?
COc1cc2c(cc1OC)C(C(=O)N1CCC3(CC1)OCCO3)C(c1ccccc1F)N(C)C2=O (centres undefined)	1.33e-08	-0.3%	i	i	?
COc1ccc(NC(=O)N2CCC3(CC2)CCN(C(=O)Oc2ccccc2)CC3)cc1	5.7e-09	-0.4%	i	i	27.0%
SMILES	A647 autofl	AID923	A488 fluor	Resorufin fluor	TSHR ag
CC1(C)C(c2ccccc2)=NC(c2cccnc2)=[N+]1[O-]	.	0.7%	.	.	-7.0%
O=c1cccc2n1CC1CC2CN(C(c2ccccc2)c2sc3ncnn3c2O)C1 (centres undefined)	.	-2.5%	.	.	2.3%[11.4 µM]
CCOc1ccccc1-n1c(O)c(C=Nc2c(C)n(C)n(-c3ccccc3)c2=O)c(=O)[nH]c1=O	4.88e-08	.	i	i	.
Cc1nc2ccc(Cl)cn2c1P(=S)(N1CCOCC1)N1CCOCC1	1e-09	0.3%	i	i	25.2%
O=C(Nc1cc[c]([Sb](=[O])([OH])[OH])cc1)c1ccccc1	1e-09	.	i	i	9.0%[11.4 µM]
Cc1[nH]c2ccccc2c1/C=N/O	2.54e-08	1.7%	i	i	-1.3%
Cc1noc(C)c1C(=O)N1CCC2(CC1)OCCO2	7.1e-09	-0.1%	i	i	2.2%
Cc1[nH]c2ccccc2c1C1=CCNCC1	3e-08	5.4%	i	i	25.8%
Cc1ccc(S(=O)(=O)NCC2CCC(C(=O)N3CCC4(CC3)OCCO4)CC2)cc1 (centres undefined)	1.37e-08	0.7%	i	i	-2.0%
CC(=O)c1c(C)n(CC2CCCO2)c2ccc(O)cc12 (centres undefined)	9.8e-09	1.2%	i	i	7.9%
C=Cn1ccnc1P(=S)(c1nccn1C=C)C1CCCCC1	1e-09	-0.4%	i	i	-0.1%
CC1=C(O)C(=O)[C@H]2O[C@@H]2C1=O	.	5.5%	.	.	-0.3%
Cc1ccc(OCC(=O)N2CCN(C)CC2)c(Br)c1	1e-09	0.8%	i	i	10.8%
CCOC(=O)c1ccc(N2C(=O)CC(N3CC=C(c4ccc(F)cc4)CC3)C2=O)cc1 (centres undefined)	3.5e-09	2.6%	i	i	1.8%
O=C(c1csnn1)N1CCC2(CC1)CN(Cc1ccncc1)C2	1.4e-09	-1.4%	i	i	1.1%
C[C@@H]1Cc2cc3c(cc2C(c2ccc(N)cc2)=NN1)OCO3	4.9e-09	-1.1%	i	i	-4.2%
CC(C)c1ccc2c(c1)CC[C@H]1[C@](C)(CN)CCC[C@]21C	.	-3.2%	.	.	?
Cc1nc2nc(C)c(CCC(=O)N3CCC4(CC3)OCCO4)c(C)n2n1	7.1e-09	1.2%	i	i	-0.1%
Cc1cccn2c(=O)c3cc(C(=O)N4CCC5(CC4)OCCO5)n(C)c3nc12	8.3e-09	4.5%	i	i	8.6%
CN(Cc1ccccc1)Cc1ccccc1OC(=O)N(C)C	2.7e-09	0.3%	i	i	.
COc1ccc(C2C(C(=O)N3CCC4(CC3)OCCO4)c3cc(OC)c(OC)cc3C(=O)N2C)cc1 (centres undefined)	2.23e-08	0.7%	i	i	0.6%
COC1(CS(=O)c2ccccc2)CCN(CCc2c[nH]c3ccc(F)cc23)CC1 (centres undefined)	.	0.5%	.	.	13.1%
COc1cc(CN2CCN(c3cc(C)ccc3C)CC2)ccc1O	9e-09	-1.7%	i	i	1.0%
CCOP1(=S)Oc2cc3c(cc2C(C(=O)OC)(C(F)(F)F)O1)OCO3 (centres undefined)	1e-09	-0.2%	i	i	?
CCC(C)N1C(=O)NC(=O)C2(Cc3c(ccc4ccccc34)N(C)C2)C1=O (centres undefined)	2.55e-08	-0.9%	i	i	9.6%
CN1C2CCC1CC(OC(=O)CCN1CCCC1)C2 (centres undefined)	1e-09	-2.2%	i	i	.
Clc1ccc2ccccc2c1	.	-1.4%	.	.	5.2%
O=C(O)C(Cl)(Cl)Br	.	1.5%	.	.	2.1%
Cn1c(O)c(C=NC2C(=O)C3(C)CCC2C3(C)C)c(=O)n(C)c1=O (centres undefined)	1.68e-08	2.8%	i	i	16.3%
CCCCn1c(O)c(C(CC)=Nc2cccc(C(=O)O)c2)c(=O)[nH]c1=O	1.9e-09	1.3%	i	i	?

Compound profiles (already shown). Screens in order: A647 autofl	AID923	A488 fluor	Resorufin fluor	TSHR ag
`Cc1noc(C)c1C(=O)N1CCC2(CC1)OCCO2` is listed with 7.1e-09	-0.1%	i	i	2.2%
`Cc1ccc(S(=O)(=O)NCC2CCC(C(=O)N3CCC4(CC3)OCCO4)CC2)cc1` (centres undefined) is listed with 1.37e-08	0.7%	i	i	-2.0%
`Cc1[nH]c2ccccc2c1/C=N/O` is listed with 2.54e-08	1.7%	i	i	-1.3%
`C[C@@H]1Cc2cc3c(cc2C(c2ccc(N)cc2)=NN1)OCO3` is listed with 4.9e-09	-1.1%	i	i	-4.2%
`COc1cc(CN2CCN(c3cc(C)ccc3C)CC2)ccc1O` is listed with 9e-09	-1.7%	i	i	1.0%

Looked up above:
Reading for CC(C)c1ccc2c(c1)CC[C@H]1[C@](C)(CN)CCC[C@]21C in AID923: -3.2%
Reading for Cc1cccn2c(=O)c3cc(C(=O)N4CCC5(CC4)OCCO5)n(C)c3nc12 in A647 autofl: 8.3e-09
Reading for C=Cn1ccnc1P(=S)(c1nccn1C=C)C1CCCCC1 in A647 autofl: 1e-09
Reading for CCC(C)N1C(=O)NC(=O)C2(Cc3c(ccc4ccccc34)N(C)C2)C1=O (centres undefined) in AID923: -0.9%
Reading for Cc1ccc(S(=O)(=O)NCC2CCC(C(=O)N3CCC4(CC3)OCCO4)CC2)cc1 (centres undefined) in AID923: 0.7%
